YopH inh – YopH tyrosine phosphatase inhibitors, primary screen, biochemical, fluorescence Ex485/Em525 | inhibition, %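 (about 10 µM by stock and volumes)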 | actives 0.16% (n = 140,000);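 active = inhibition of 50% or more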;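 also: controls were vehicle for no effect and minimum signal wells for full effect; inactives centre near -20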
Arbovirus inh – antivirals against arbovirus infection, primary screen, cell-based, full library, 10K replicate subset; arbovirus infection cell-based antiviral screen; inhibition, % at 10 µM; actives 0.37% (n = 200,000); AID 1251, 2008;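 active = inhibition from about 30%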;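 also: bluetongue infection of BSR cells; cell survival read as ATP light after 72 h; 0% = infected wells without compound and 100% = uninfected wells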
Mtb bLac sens – beta-lactam sensitization of Mtb H37Rv, H37Rv. AID 434955, 2010. M. tuberculosis H37Rv growth with meropenem, percent inhibition; hits of this screen are not shown here. inhibition, % at 25 µM. actives 0.27% (n = 330,000);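 active = about 74% or more and at least 40 points above the plate without the antibiotic, then above 30% in a dose series; inconclusive = first-round hits that could not be retested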;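 also: growth measured after seven days incubation then overnight dye step; 0% = bacteria only wells and 100% = bacteria with antibiotic; twin plates without the antibiotic show which effects depend on it; some results filed as inactive read as strong as hits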
RecA splice inh – Mtb RecA intein splicing inhibitors, primary screen, biochemical, fluorescence, HTS; inhibition, %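 (about 9 µM by stock and volumes)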; actives 0.75% (n = 290,000); Protein RecA (Mycobacterium tuberculosis (strain ATCC 25618 / H37Rv)), P9WHJ3; AID 2221, 2009; cell-free RecA intein splicing; in the data active = inhibition above about 30%; inconclusive = no clear call, values can overlap the other calls;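 also: 0% = vehicle wells and 100% = reference inhibitor control wells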
Target sequence (P9WHJ3 whole entry, looked up, canonical isoform): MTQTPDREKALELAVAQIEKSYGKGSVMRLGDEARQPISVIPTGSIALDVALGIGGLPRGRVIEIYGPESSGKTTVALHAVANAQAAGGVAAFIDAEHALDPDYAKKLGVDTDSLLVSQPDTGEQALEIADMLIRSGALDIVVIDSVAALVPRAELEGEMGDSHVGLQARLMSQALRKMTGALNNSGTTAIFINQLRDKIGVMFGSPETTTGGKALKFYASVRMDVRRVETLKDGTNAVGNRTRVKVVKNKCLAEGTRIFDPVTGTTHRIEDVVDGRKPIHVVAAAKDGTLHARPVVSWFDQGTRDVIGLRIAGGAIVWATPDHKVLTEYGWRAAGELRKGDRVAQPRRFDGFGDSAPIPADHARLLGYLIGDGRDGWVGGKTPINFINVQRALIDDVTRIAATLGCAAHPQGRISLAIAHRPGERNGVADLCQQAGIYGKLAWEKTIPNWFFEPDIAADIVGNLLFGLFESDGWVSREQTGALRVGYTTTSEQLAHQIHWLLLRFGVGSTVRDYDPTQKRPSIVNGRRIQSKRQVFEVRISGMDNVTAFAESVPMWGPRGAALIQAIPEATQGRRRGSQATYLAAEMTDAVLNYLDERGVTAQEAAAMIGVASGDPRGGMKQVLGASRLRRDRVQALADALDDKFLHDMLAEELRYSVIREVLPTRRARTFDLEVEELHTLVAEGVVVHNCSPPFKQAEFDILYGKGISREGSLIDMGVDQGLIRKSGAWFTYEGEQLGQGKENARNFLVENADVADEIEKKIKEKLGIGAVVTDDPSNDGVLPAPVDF
Mtb growth – M. tuberculosis H37Rv growth inhibitors, H37Rv strain (AID 1626). M. tuberculosis H37Rv growth inhibition; higher % means a stronger effect. one-dose inhibition, % at 10 µM; IC50 in µM for titrated hits. actives 0.95% (n = 220,000);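 active = confirmed in a dose series; inconclusive = inhibition above 80% but not taken into the dose series; inactive = below 80% or under 30% at every dose of the series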;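 also: bacteria incubated seven days before Alamar blue readout; 0% = bacteria only wells and 100% = bacteria with antibiotic wells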
Arbovirus inh repeat – second read-out of Arbovirus inh, no call of its own (marks repeat the call); inhibition, %; measured here: 10K subset replicate screen; many hits read low in the repeat;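 first of two repeat runs on a subset; 0% = infected and 100% = uninfected wells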
The depositor's hits bear a star; ? = inconclusive; . = not tested or not shown. An excerpt, so the mix of outcomes need not match the whole.

SMILES	YopH inh	Arbovirus inh	Mtb bLac sens	RecA splice inh	Mtb growth	others
CCN(CC)C(=O)CCCC(=O)N(CC)CC	.	4	3	0.2	-6%
S=C(Nc1ccc2c(c1)OCO2)N1CCN(Cc2ccco2)CC1	.	-2	3	2.6	-6%
CCC(C(=O)OC)n1c(-c2ccccc2)nc2ccccc2c1=O (configuration not stated)	.	0	6	12	-1%
Cc1ccccc1CS(=O)(=O)Cc1ccc(C(=O)NC2CCCC2)o1	.	.	-6	3.4	.
CC(C)(C)c1ccc(C(=O)C2CCCN(C(=O)CCn3cncn3)C2)cc1 (configuration not stated)	.	.	13	1.3	.
CC12CCC(c3c1nc1ccccc1[n+]3[O-])C2(C)C (configuration not stated)	-29	-9	8	-0.4	4%
CCc1ccc(OCC(=O)OC(C)C(=O)NC2CC2)cc1 (configuration not stated)	.	.	-3	0.6	.
COC(=O)CS(=O)(=O)c1cccc2cccnc12	.	1	-3	-0.7	2%
Cc1c(C(=O)N2CCCC2)sc(NC(=O)c2ccc(Cl)cc2)c1C#N	-82	16	6	-2.7	1%
COc1cc(/C=C/C(=O)N2CCN(c3n[nH]c(=O)[nH]c3=O)CC2)cc(OC)c1OC	.	-2	-8	-0.9	1%
C=C(C)c1sc(-c2ccc(Cl)cc2)nc1C	.	.	-1	1.4	12%
CCc1ccc(OCCOCC(O)CNC2CCCC2)cc1 (configuration not stated)	.	-9	-9	-1.1	4%
Cc1ccc(Cl)cc1N1CCN(C(=O)CCC(=O)O)CC1	-26	2	10	1.9	-15%	Arbovirus inh repeat=5
CCN(CC)C(=O)CS(=O)CC(=O)Nc1cc(OCCOC)c(Cl)cc1Cl (configuration not stated)	.	3	-6	-5.5	6%
O=C(NC(=S)Nc1ccc(S(=O)(=O)Nc2nccs2)cc1)c1cccnc1	.	0	-1	1.5	-5%
COCCCN1C(=O)c2[nH]nc(-c3cc(C)cc(C)c3O)c2C1c1ccc(O)c(OC)c1 (configuration not stated)	-35	5	-7	2.9	-10%
NC(=O)c1ccc(NC(=O)COc2cccc3ccccc23)cc1	.	.	-7	-5.5	.
COc1ccc(CCNC(=O)CSc2ccc(-c3ccco3)nn2)cc1	.	3	-5	-2.8	2%
COCCn1c(SCC(=O)c2c(-c3ccccc3)n(C)c3ccccc23)nnc1-c1ccncc1	-24	-4	-1	2.6	5%
CCn1nc(C(=O)Nc2ccc(S(=O)(=O)Nc3ncccn3)cc2)c2ccccc2c1=O	.	8	8	-3.1	1%
Cc1cccn2c(=O)c(C=C(C#N)C#N)c(N3CCN(c4ccccc4)CC3)nc12	.	.	-1	8.1	.
CCOc1ccccc1C(=O)NCCCN1CCN(CCCNC(=O)c2ccccc2OCC)CC1	-31	-2	-2	-0.9	-1%
CCOC(CNC(=O)CCc1c(C)nc2nc(C)nn2c1C)OCC	-30	1	-6	.	-1%
Cc1cc(C)nc(/N=C(\N)N2CCc3ccccc32)n1	.	9	0	-1.3	0%
COc1ccc(-c2cc(-c3cccs3)nc3sc(C#N)c(N)c23)cc1	2	0	-4	-2.7	-3%
C=CCOc1ccc(Oc2cc(C)nc(SC)n2)nn1	-34	-6	-4	2.6	-13%
O=C(CNc1cccc(S(=O)(=O)N2CCCC2)c1)Nc1ccc(C(F)(F)F)cc1	.	.	-7	-0.8	.
Cc1nnc(-c2cnn(-c3ccccc3)c2N)n1Cc1cccc(C(F)(F)F)c1	9	-5	-23	0.6	-4%
Cc1oc(-c2ccc(Cl)cc2)nc1CS(=O)CC(=O)NCc1ccccc1 (configuration not stated)	.	.	-2	-3.8	.
CCN1CCc2c(OCC(=O)N3CCC(C)CC3)cccc2C1=O	.	4	-11	-0.9	-3%
O=C(CCN1CCCC1=O)NC1CCCc2c1cnn2-c1ccc(F)cc1F (configuration not stated)	.	.	-3	2.0	.
COCCNC(=S)N1CCOCC1	-24	-6	-7	3.0	-2%
Cc1cc(/C=C2\C(=N)N3N=C(C(C)C)SC3=NC2=O)c(C)n1-c1ccccc1	.	4	-5	-3.7	2%
CCc1ccc(C2N3CC4([N+](=O)[O-])CN2CC([N+](=O)[O-])(C3)C4(C)C)cc1 (configuration not stated)	4	4	0	0.0	-5%
Cn1cc(C(=O)C(=O)NCCc2ccccc2)c2ccccc21	.	.	-2	8.3	.
C=CCn1cc(/C=N/NC(=O)COc2cccc3cccnc23)c2ccccc21	-20	-9	4	-1.1	5%

Two compounds picked at random from the list so far:
SMILES	YopH inh	Arbovirus inh	Mtb bLac sens	RecA splice inh	Mtb growth	others
Cn1cc(C(=O)C(=O)NCCc2ccccc2)c2ccccc21	.	.	-2	8.3	.
Cc1cc(/C=C2\C(=N)N3N=C(C(C)C)SC3=NC2=O)c(C)n1-c1ccccc1	.	4	-5	-3.7	2%

Remaining list, next part:
SMILES	YopH inh	Arbovirus inh	Mtb bLac sens	RecA splice inh	Mtb growth	others
O=C(CNC(=O)c1ccccc1)NCC(O)c1ccc([N+](=O)[O-])cc1 (configuration not stated)	.	.	1	1.7	.
COc1ccc2cc(/C=N/NC(=O)CN(c3ccccc3C)S(=O)(=O)c3ccccc3)c(Cl)nc2c1	-9	-18	3	-38	3%
O=C(c1ccco1)N1CCN(C(=O)C2CCN(S(=O)(=O)c3cnc[nH]3)CC2)CC1	-17	3	-5	3.5	-14%
COc1cccc(OCc2cc(C(=O)N(C)Cc3nccn3C)no2)c1	.	.	5	-0.4	.
c1ccc(C2CCC3(CC2)Oc2ccccc2C2CC(c4cccnc4)=NN23)cc1 (configuration not stated)	-33	-2	0	-0.9	0%
O=C(CCOc1ccccc1)N1CCN(S(=O)(=O)c2cccs2)CC1	-32	-1	-3	-2.0	-8%
Cc1ccc(-n2c(-c3cccc(C)c3)n[nH]c2=S)cc1	-16	6	1	-0.5	1%
COc1ccc(-n2c(Cc3cccn3C)nnc2SCC(=O)NCc2ccccc2Cl)cc1	1	3	4	-0.4	4%
CCOC(=O)N1CCN(C(=O)CSc2ccc3nnc(CCNC(=O)c4ccc(OC)cc4)n3n2)CC1	.	0	-3	-2.3	1%
Cc1ccc(NC(=O)c2nc(C)n(-c3ccc([N+](=O)[O-])cc3)n2)cc1	-33	22	44	-1.0	47%
O=C(NCc1ccc(Cl)cc1)NCc1ccc(Cl)cc1	.	-1	-7	4.1	3%
O=C(O)/C=C/C(=O)Nc1ccc(OC(F)(F)Cl)cc1	.	-1	-7	6.9	-7%

Part of the list above in order of molecular weight, highest first.
SMILES	YopH inh	Arbovirus inh	Mtb bLac sens	RecA splice inh	Mtb growth	others
O=C(c1ccco1)N1CCN(C(=O)C2CCN(S(=O)(=O)c3cnc[nH]3)CC2)CC1	-17	3	-5	3.5	-14%
c1ccc(C2CCC3(CC2)Oc2ccccc2C2CC(c4cccnc4)=NN23)cc1 (configuration not stated)	-33	-2	0	-0.9	0%
O=C(CCOc1ccccc1)N1CCN(S(=O)(=O)c2cccs2)CC1	-32	-1	-3	-2.0	-8%
O=C(O)/C=C/C(=O)Nc1ccc(OC(F)(F)Cl)cc1	.	-1	-7	6.9	-7%
Cc1ccc(-n2c(-c3cccc(C)c3)n[nH]c2=S)cc1	-16	6	1	-0.5	1%

(further entries)
SMILES	YopH inh	Arbovirus inh	Mtb bLac sens	RecA splice inh	Mtb growth	others
N/C(=N\OC(=O)Nc1ccc(Cl)c(Cl)c1)c1ncc(C(F)(F)F)cc1Cl	-20	-18	94	7.2	?
COc1ccc(NC(=O)Nc2cc(C)ccc2F)cc1	-30	6	0	-0.6	20%
O=C(Cn1cc(C(=O)C2CC2)c2ccccc21)NCC1CCCO1 (configuration not stated)	31	5	0	-0.6	-3%
N#Cc1ccc(S(=O)(=O)N2CCCN(c3nc4ccc(Cl)cc4s3)CC2)cc1	.	.	-7	0.2	6%
COc1ccccc1N(CC(=O)NCCSCc1ccccc1)S(C)(=O)=O	.	.	-5	-1.7	.
CCCn1nnnc1SCC(=O)N1CCOCC1	-22	1	-4	2.2	-6%
CCCn1cc(S(=O)(=O)c2ccccc2)c(=O)c2cc(CC)ccc21	.	.	?	6.8	.
COc1ccc(-c2noc(CCC(=O)NCc3ccco3)n2)cc1	.	.	-1	-1.7	-5%
COc1ccc(/C=N/NC(=O)c2ccc(Cl)cc2)cc1Cn1cc(Cl)cn1	-24	3	-1	0.2	-7%
CCn1cc(C(=O)O)c(=O)c2cnc(N3CCN(C(=S)NC(=O)c4ccc(Cl)cc4)CC3)nc21	.	.	46	-7.0	7%
COc1ccc(/C=C/C(=O)Nc2ccc(C(N)=O)cc2)cc1OC	.	.	-3	1.0	-4%
COc1cc(CNC2CCCC2)c(Br)cc1OC1CCCC1	.	8	2	-0.2	7%
O=C(COC(=O)c1ccco1)NC1CCCCC1	-40	9	1	8.1	-2%
COC(=O)c1cc(N2CCN(C)CC2)nc2ccccc12	.	3	1	-72	6%
Cc1cc(C)n2nc(C(=O)OCCOc3ccc(Br)cc3)nc2n1	-21	-4	-12	4.4	.
CCOC(=O)c1c(N)sc(C(=O)OC)c1C	.	-6	40	0.7	76%
Cc1cc(C)nc(-n2nc(C)c(C3(O)C(=O)Nc4ccccc43)c2N)n1 (configuration not stated)	-32	-2	8	9.5	-8%
Cn1nc(-c2ccccc2)c(CO)c1Oc1ccc(F)cc1	.	3	5	-0.1	13%
Cc1ccccc1C(=O)NCCn1cc(SCC(=O)NCC2CCCO2)c2ccccc21 (configuration not stated)	.	.	11	2.1	.
CC(C)c1ccc(CNCc2ccccc2)cc1	-10	-2	5	3.7	1%
N#Cc1c(N)nc2c(c1-c1cccs1)CCCC2	-25	4	-5	-1.2	6%
CCc1ccccc1Nc1ncnc2ccccc12	.	.	1	-0.6	.
COCC(C)NC(=S)N1CCN(c2ccccc2Cl)CC1 (configuration not stated)	.	0	-1	-1.1	2%
CCC(c1nnc(SCC(=O)NCCc2ccc(OC)c(OC)c2)n1Cc1ccccc1)N(C)C (configuration not stated)	.	2	-6	-2.3	-5%
O=c1[nH]nnc2sc3c(c12)CCCC3	-20	13	-11	-4.0	-10%
COc1ccc(C2CC(c3cccs3)=NN2C(=O)CSc2nnnn2C)cc1OC (configuration not stated)	.	-6	0	-0.4	1%
CCOC(=O)CN1C(=O)C(O)(CC(=O)c2ccccn2)c2ccccc21 (configuration not stated)	-17	-15	-1	0.7	-1%	Arbovirus inh repeat=-8
CN(C)c1ccc(NC(=O)c2ccc(Cn3cc([N+](=O)[O-])cn3)cc2)cc1	.	-32	54	2.8	-13%
CCCCN(CCCC)S(=O)(=O)c1ccc(NC(=O)c2ccc([N+](=O)[O-])cc2Cl)cc1	14	-10	97	-0.3	?
COc1cccc(CN2CCN(c3ncccn3)CC2)c1OC	.	.	1	2.0	.
COc1ccc(CCNC(=O)C2CC(c3c(Cl)cccc3Cl)=NO2)cc1 (configuration not stated)	-17	-2	24	2.9	14%
CC(Oc1cc2oc(=O)c3c(c2cc1Cl)CCC3)C(=O)NCCCn1ccnc1 (configuration not stated)	.	.	3	-1.4	.
CC1(C)CC(=O)C(N=Nc2ccc(C(F)(F)F)cc2[N+](=O)[O-])=C(O)C1	.	.	100	-1.5	?
O=C(O)[C@@H]1CC(O)CN1C(=O)CCc1c[nH]c2ccccc12 (some centres not stated)	.	.	21	-5.8	.
CC(C)CN1CCN(Cc2ccc(C(F)(F)F)cc2)CC1CCO (configuration not stated)	.	.	4	-2.6	-10%
O=C(CCS(=O)(=O)c1ccccc1)Nc1nc(-c2ccc(F)cc2)cs1	.	.	4	0.9	8%
Cc1cnn(-c2nc(-c3cccs3)cc(C(F)(F)F)n2)c1	-14	8	13	-1.9	1%
COc1cc(Nc2ccc(C)cc2)c([N+](=O)[O-])nc1[N+](=O)[O-]	-29	-16	3	0.9	-13%
O=C(O)c1cc(-c2ccccc2)n(-c2ccc(F)cc2)n1	.	.	-4	2.5	.
CCN1CCN(Cc2ccc(NC(=O)c3cc(NC(=O)c4ccc5n[nH]nc5c4)cc(OC)c3)cc2C(F)(F)F)CC1	.	.	-9	-0.2	-2%
COc1ccc(C2c3[nH]c4ccccc4c3CCN2C(=O)c2ccccc2C(C)=O)c(F)c1 (configuration not stated)	.	.	3	-2.0	.
NS(=O)(=O)c1ccc(CCNC(=O)Nc2ccc(Cl)cc2)cc1	-27	0	-1	3.3	-2%
CC(=O)Nc1ccc(OC(F)(F)C(F)F)c(NC(C)=O)c1	-11	0	-4	3.0	-4%
Cc1onc(-c2ccccc2)c1C(=O)NCCN1CCOCC1	-31	-2	-1	2.4	.
O=C(c1ccco1)N1N=C(c2cccs2)CC1c1ccccc1O (configuration not stated)	.	.	-3	0.2	.
CCOc1ccccc1CNc1nnnn1C	.	.	3	-1.4	.

Screens: PubChem, several laboratories
